Arbovirus anti: antivirals against arbovirus infection; AID 1251; arbovirus infection cell-based antiviral screen; inhibition, % at 10 µM; 0.37% of 200,000 active;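 active = inhibition from about 30%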;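 also: bluetongue infection of BSR cells; cell survival read as ATP light after 72 h; 0% = infected wells without compound and 100% = uninfected wells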
RecA intein inh: blocks M. tuberculosis RecA intein splicing. cell-free RecA intein splicing, fluorescence. inhibition, %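 (about 9 µM by stock and volumes)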. 0.75% of 290,000 active; in the data active = inhibition above about 30%; inconclusive = no clear call, values can overlap the other calls;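 also: 0% = vehicle wells and 100% = reference inhibitor control wells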
Target sequence (P9WHJ3 whole entry, looked up): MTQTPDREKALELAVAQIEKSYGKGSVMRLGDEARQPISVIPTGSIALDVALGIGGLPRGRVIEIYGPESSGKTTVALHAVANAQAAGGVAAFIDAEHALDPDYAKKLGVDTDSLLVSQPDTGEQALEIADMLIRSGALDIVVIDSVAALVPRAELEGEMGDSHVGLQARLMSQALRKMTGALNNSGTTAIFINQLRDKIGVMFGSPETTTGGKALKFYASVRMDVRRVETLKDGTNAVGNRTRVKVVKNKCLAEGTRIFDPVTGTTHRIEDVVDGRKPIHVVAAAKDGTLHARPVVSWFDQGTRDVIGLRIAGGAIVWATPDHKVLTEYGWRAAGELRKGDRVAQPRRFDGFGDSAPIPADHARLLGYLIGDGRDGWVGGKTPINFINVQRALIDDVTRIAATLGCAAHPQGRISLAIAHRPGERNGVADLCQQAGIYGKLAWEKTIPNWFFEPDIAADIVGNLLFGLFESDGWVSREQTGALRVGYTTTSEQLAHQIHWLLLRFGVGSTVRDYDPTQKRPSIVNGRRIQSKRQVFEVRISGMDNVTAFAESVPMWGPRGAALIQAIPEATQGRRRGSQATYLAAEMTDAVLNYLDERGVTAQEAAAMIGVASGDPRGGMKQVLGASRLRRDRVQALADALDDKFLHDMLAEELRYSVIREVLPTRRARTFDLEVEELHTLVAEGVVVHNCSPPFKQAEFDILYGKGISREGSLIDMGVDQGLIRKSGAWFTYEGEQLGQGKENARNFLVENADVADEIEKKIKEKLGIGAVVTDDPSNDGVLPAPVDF
YopH PTP inh: inhibitors of Yersinia enterocolitica YopH tyrosine phosphatase | fluorescence Ex485/Em525 | inhibition, %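 (about 10 µM by stock and volumes)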 | AID 898 | 0.16% of 140,000 active;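 active = inhibition of 50% or more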;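 also: controls were vehicle for no effect and minimum signal wells for full effect; inactives centre near -20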
Mtb betalactam: beta-lactam sensitization of Mtb H37Rv; M. tuberculosis H37Rv growth with meropenem, percent inhibition; hits of this screen are not shown here; inhibition, % at 25 µM; 0.27% of 330,000 active; AID 434955;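 active = about 74% or more and at least 40 points above the plate without the antibiotic, then above 30% in a dose series; inconclusive = first-round hits that could not be retested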;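 also: growth measured after seven days incubation then overnight dye step; 0% = bacteria only wells and 100% = bacteria with antibiotic; twin plates without the antibiotic show which effects depend on it; some results filed as inactive read as strong as hits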
Mtb growth: M. tuberculosis H37Rv growth inhibitors, H37Rv strain (AID 1626); M. tuberculosis H37Rv growth inhibition; higher % means a stronger effect; one-dose inhibition, % at 10 µM; IC50 in µM for titrated hits; 0.95% of 220,000 active;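 active = confirmed in a dose series; inconclusive = inhibition above 80% but not taken into the dose series; inactive = below 80% or under 30% at every dose of the series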;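 also: bacteria incubated seven days before Alamar blue readout; 0% = bacteria only wells and 100% = bacteria with antibiotic wells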
Arbovirus anti repeat: recorded beside Arbovirus anti, whose call it bears; inhibition, %; measured here: 10K subset replicate screen; many hits read low in the repeat;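 first of two repeat runs on a subset; 0% = infected and 100% = uninfected wells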
* marks the source's active call; other numbers are inactive results; u = inconclusive; x = no result given. A portion of the library (hit frequency here may not be typical).

SMILES	Arbovirus anti	RecA intein inh	YopH PTP inh	Mtb betalactam	Mtb growth	others
CC(=O)c1c(Nc2ccc3c(c2)OCCO3)oc(C)cc1=O	-4	-1.1	-41	0	-4%	Arbovirus anti repeat=-5
COc1ccc(C)cc1NC(=O)CN(C)S(=O)(=O)c1cc(C)ccc1OC	-7	-0.4	-16	0	-2%
COc1cc(C(=O)NCCC(c2ccccc2)c2ccccc2)cc(OC)c1OC	x	14	x	0	x
CCN(C(=S)NC(=O)C1CC1)c1ccccc1	x	-3.3	x	-15	x
CN1C(=O)c2ccccc2Sc2ccc(NC(=O)NC3CC3)cc21	-3	-5.0	-15	-8	-5%
CC(C)S(=O)(=O)C/C(N)=N/OC(=O)c1cc(Cl)cc(Cl)c1	x	3.2	x	-3	0%
CC(=Nc1ccc2c(c1)nc(CO)n2C)C1=C(O)CC(C)(C)CC1=O	16	-1.0	2	-2	-1%
CC[n+]1c(-c2ccccc2)csc1Nc1c(C)n(C)n(-c2ccccc2)c1=O	5	1.1	-17	-9	0%
COc1ccc(S(=O)(=O)NCCCCC(=O)O)cc1C(=O)O	-1	x	x	-7	8%
CCC(=O)Nc1cccc(C(=O)c2ccc(C)c(C)c2)c1	2	-0.1	x	-6	32%
S=C(NCc1ccc2[nH]c3c(c2c1)CCCC3)Nc1ccccc1Cl	-9	-0.8	-18	2	15%
Cc1cccc(OC(C)C(=O)N2CCc3ccccc3C2)c1 (stereo not given)	x	0.7	x	4	x
O=S1(=O)CCN2C(Cc3ccc(SC(F)F)cc3)=CSC2=N1	-1	0.1	-40	-1	-1%
CCN(N=O)[C@@H](Cc1ccccc1)CN(N=O)[C@@H](Cc1ccccc1)CN(C)N=O	5	-1.8	x	-10	-7%
CSCC[C@H](NC(=O)c1ccc(Br)o1)c1nnc2ccccn12	x	-1.7	x	-6	x
COCCCNc1cc(C)nc2ccccc12	1	3.8	-99	-4	-4%
CC(C)(C)NC(=O)C(c1cccs1)N(CC1CCCO1)C(=O)c1ccc(-c2ccccc2)[nH]1 (stereo not given)	-25	33*	-24	-10	6%
C/C(=N\Nc1ccc(F)cc1)c1ccc(N2CCOCC2)c(F)c1	x	7.7	x	9	x
Cc1cccc(CCNS(=O)(=O)c2ccc3c(c2)NC(=O)C(C)S3)c1 (stereo not given)	x	4.6	x	9	x
CCOC(=O)Cn1c(=O)c2c(nc3n2CCS3)n(C)c1=O	-3	0.0	-22	-2	0%
CC1=NN(C(=O)CCc2ccccc2)C(O)(c2ccncc2)C1 (stereo not given)	-4	-0.2	x	-3	-4%
O=C(O)c1ccc(Nc2nc3c(s2)CCCC3)cc1	2	-1.0	x	9	-2%
O=C(O)c1cnn(-c2nc(-c3cccc(F)c3)cs2)c1C(F)(F)F	3	-0.6	x	0	2%
COc1ccc(N2CCN(C(=O)Cc3cccs3)CC2)cc1	-1	-2.3	-6	-12	-10%
Cc1[nH]c(C)c(S(=O)(=O)N2CCC(C)CC2)c1C(=O)N1CCCC1	x	-3.1	x	-6	x

In the list so far, two have two or more sulfur atoms:
SMILES	Arbovirus anti	RecA intein inh	YopH PTP inh	Mtb betalactam	Mtb growth	others
O=S1(=O)CCN2C(Cc3ccc(SC(F)F)cc3)=CSC2=N1	-1	0.1	-40	-1	-1%
Cc1cccc(CCNS(=O)(=O)c2ccc3c(c2)NC(=O)C(C)S3)c1 (stereo not given)	x	4.6	x	9	x

Retrieved one by one from the entries so far:
SMILES	Arbovirus anti	RecA intein inh	YopH PTP inh	Mtb betalactam	Mtb growth	others
O=C(O)c1ccc(Nc2nc3c(s2)CCCC3)cc1	2	-1.0	x	9	-2%
CSCC[C@H](NC(=O)c1ccc(Br)o1)c1nnc2ccccn12	x	-1.7	x	-6	x
Cc1cccc(OC(C)C(=O)N2CCc3ccccc3C2)c1 (stereo not given)	x	0.7	x	4	x
Cc1[nH]c(C)c(S(=O)(=O)N2CCC(C)CC2)c1C(=O)N1CCCC1	x	-3.1	x	-6	x

Next records:
SMILES	Arbovirus anti	RecA intein inh	YopH PTP inh	Mtb betalactam	Mtb growth	others
CC(=O)CNc1ccc(S(=O)(=O)N/N=C/c2ccccc2)cc1	3	-0.2	x	-2	7%
COC(=O)C1(CCSC)NC(c2ccc(O)c(OC)c2)C2C(=O)N(c3ccc(C)cc3)C(=O)C21 (stereo not given)	1	-3.5	x	-4	0%
Cc1c(C(=O)N2CCCC2)c(S(=O)(=O)Nc2ccccc2)c(C)n1C	x	-0.4	x	-1	x
Cc1cccc(/C=N/n2c(C)cc(C)c(C#N)c2=O)c1	1	-1.7	-17	1	-11%
COP(=O)(OC)C1(O)C(=O)Nc2ccc(Br)cc21 (stereo not given)	-5	4.0	-33	0	-8%
S=C1NCN(CCc2ccccc2)CN1	x	-1.6	x	-13	-13%
COCC(=O)Nc1cc(C)cn(Cc2cccc(C(F)(F)F)c2)c1=O	x	1.4	x	-5	x
Cc1ccc(S(=O)(=O)Nc2cc3c4c(c2)CCN4C(=O)CC3)cc1	x	-3.3	x	-8	x
Cc1nc(NC(=O)c2c(-c3ccccc3)noc2C)sc1C(=O)N(C)C	x	-1.1	x	-6	x
O=C(CN1CCN(c2ccccn2)CC1)N1c2ccccc2Sc2ccc(C(F)(F)F)cc21	-8	3.8	3	u	-4%
Cc1ccc(N2CC(NS(=O)(=O)c3cccnc3)CC2=O)cc1 (stereo not given)	x	-0.7	x	-4	x
COc1cc2c(cc1OC)CN(c1nc(CN3CCOCC3)nc3sc4c(c13)CCCC4)CC2	-43	8.5	-12	96	59%
Cc1ccc(N2CC(C(=O)Nc3cc(Cl)ccc3-n3cncn3)CC2=O)cc1 (stereo not given)	x	-0.9	x	-7	x
C[C@H](NC(=O)[C@H]1N2C(=O)c3ccccc3C2SC1(C)C)C(=O)N1CCCCC1 (stereo not given in full)	x	2.8	x	6	x
CCN(CC)C(=O)Cn1c(=O)n(-c2ccccc2)c(=O)c2c3c(sc21)CCC3	-1	3.1	-15	16	-8%
CC(Oc1ccccc1)C(=O)N=Nc1c(O)[nH]c2ccc(Br)cc12 (stereo not given)	10	1.9	x	-3	5%
COc1ccc2oc(=O)c(C(=O)Nc3ccccc3-c3ccccc3)cc2c1	1	-1.9	-25	x	0%
Cc1sc(NC(=O)CS(=O)(=O)c2ccccc2)c(C(N)=O)c1C	x	-0.2	x	-9	x
Cc1ccnc(NC(=O)CNC(=O)Cc2cccc3ccccc23)c1	x	-0.9	x	-8	x
Nc1nc(SCC(=O)NCc2ccco2)[nH]c(=O)c1-c1ccccc1	11	-0.5	-13	-4	-8%
CCS(=O)(=O)N1CCN(Cc2ccc([N+](=O)[O-])cc2)CC1	-3	-0.7	-21	-7	2%
Cc1nc(-c2cccc(NC(=O)C(C)Oc3ccccc3)c2)cs1 (stereo not given)	x	6.4	x	-2	x
Cc1ccc(-n2ccc(=O)c(C(=O)O)n2)cc1	2	-3.6	-4	4	-4%
COc1ccc(C2(C(=O)NCCN3CCOCC3)CCOCC2)cc1	11	-0.3	-29	-8	-2%
CSC1=C(C#N)C(c2ccccc2C)C(C#N)=C(N)N1 (stereo not given)	-10	-3.4	-13	-8	-6%
The list continues:
SMILES	Arbovirus anti	RecA intein inh	YopH PTP inh	Mtb betalactam	Mtb growth	others
CC1CCN(C(=O)C2CCCN2S(=O)(=O)c2ccc(Cl)cc2)CC1 (stereo not given)	x	3.3	x	-1	x
COc1ccc(-c2ccc(CCC(=O)O)n2NC(=O)c2ccc(O)cc2)cc1	0	-2.5	x	-4	1%
O=C(NCc1ccc2c(c1)OCO2)c1nc(Cn2ccc([N+](=O)[O-])n2)no1	x	0.3	x	4	x
CCOC(=O)c1cnc2c(C#N)c(C)nn2c1C	2	2.1	-32	-10	-5%
Cc1ccc2nc(C)cc(C(=O)OCC(=O)c3ccc(Cl)c([N+](=O)[O-])c3)c2c1	4	3.7	-9	-9	x
CC(C)(C)OC(=O)CNC(=O)c1[nH]cnc1C(=O)NCCCCCN	x	-0.7	x	-7	x
Cc1cccc(OCCC(=O)NCC(c2ccccc2)N(C)C)c1 (stereo not given)	3	3.3	-38	u	-6%
COc1ccc(/C=C2\SC(=S)N(CCC(=O)Nc3cccc(C(=O)O)c3)C2=O)cc1OC	x	19	x	1	x
CC1Sc2ccc(S(=O)(=O)CCC(=O)N3CCN(c4ccccc4)CC3)cc2NC1=O (stereo not given)	x	-1.3	x	1	x
COCCNC(=O)Cn1cnc2c1c(=O)n(C)c(=O)n2C	6	0.7	-26	2	3%	Arbovirus anti repeat=0
CCC(O)CNc1nc(-n2nc(C)cc2C)nc2sc3c(c12)CC(C)(C)OC3 (stereo not given)	1	-1.0	-3	-7	x
CN(C)c1nc(F)c(F)c(S(=O)(=O)c2ccccc2)c1F	x	3.5	x	-2	x
C[C@H](NC(=O)[C@H]1N2C(=O)c3ccccc3C2SC1(C)C)C(=O)N1CCC[C@H]1C(=O)O (stereo not given in full)	x	3.4	x	-6	x
O=C(NNC(=S)Nc1ccc(Cl)cc1Cl)C1CC1	3	-2.2	-40	5	1%
O=C(Nc1ccc2c(c1)OCCO2)C1CCN(C(=O)c2ccc(F)cc2)CC1	-2	0.9	35	6	-4%	Arbovirus anti repeat=-1
COc1ccc(N2CCN(C(=O)c3nc4nc(C)cc(C)n4n3)CC2)cc1	3	1.1	x	5	-7%
CCN(Cc1ccccc1)Cc1nnnn1Cc1ccccc1	-4	0.6	x	4	6%
CCN1CCN(CC(O)COCc2ccccc2)CC1 (stereo not given)	1	0.6	-25	-4	2%
Cc1ccc(NC(=O)C(c2ccc(Cl)cc2)N2CCOCC2)cc1 (stereo not given)	0	1.3	x	-4	13%
O=C(O)C(Cc1ccccc1-c1ccccc1)C(=O)O	x	-0.2	x	4	x
CC(=O)N/C(=C\c1ccccc1)C(=O)Nc1ccc(O)cc1	-3	-0.6	x	-13	8%
CCc1cccc(NC(=O)CN(C)S(=O)(=O)c2cccc3nsnc23)c1	3	-0.1	-25	-11	0%
N#Cc1c(N)sc2c1CCN(CCc1ccccc1)C2	-14	-8.3	-1	-11	1%
CC1=C(C(=O)OC2CCCCC2)C(c2ccc(C)o2)C2=C(CC(C)(C)CC2=O)N1 (stereo not given)	-19	10	-28	-5	-9%
Cc1cc(S(=O)(=O)N2CCOCC2)ccc1OCC(=O)NCc1ccccn1	x	0.9	x	-9	x
(next part)
SMILES	Arbovirus anti	RecA intein inh	YopH PTP inh	Mtb betalactam	Mtb growth	others
O=C(NC1CCCCC1)c1cc(Cl)nc2ccccc12	8	1.0	-21	-3	3%
Cc1cc(NC(=O)COC(=O)c2ccc(S(=O)(=O)C(F)F)cc2)n(-c2ccccc2)n1	x	6.7	x	0	x
O=C(Nc1ccc2nc(-c3cccnc3)[nH]c2c1)c1ccccc1F	-23	-6.6	16	-5	-8%
O=C(C(c1ccccc1)c1ccccc1)N1CCN(c2ccccn2)CC1	6	-6.2	x	11	2%
O=C(O)/C=C\C(=O)Nc1ccc(N2CCN(c3ccc(Cl)cc3)CC2)cc1	-1	4.7	x	16	-5%
Cc1ccc(CNC(=O)CS(=O)Cc2nc(-c3ccccc3Cl)oc2C)cc1 (stereo not given)	x	2.2	x	2	x
CN(C)c1cnn(-c2ccccc2)c(=O)c1Cl	0	-0.3	-31	-2	-7%
COc1cc2cc(CN(CCc3ccccc3C)C(=S)NCCCN3CCOCC3)c(=O)[nH]c2cc1OC	-23	x	x	2	10%
COc1ccc(-n2cc(CNCCc3cscn3)c(-c3ccccc3Cl)n2)cc1	-17	0.3	x	75	-1%
O=C(Nc1ccc(S(=O)(=O)N2CCOCC2)cc1)c1cccs1	8	0.2	32	-4	-5%
Clc1ccc(OCCn2ccnc2)c2ccccc12	-8	5.1	33	97	u
COc1ccc(C[C@H]2CN3C(=NC[C@@H]3C)N2CCNC(=O)CCC2CCCCC2)cc1	14	-3.1	x	-9	-3%
CCOC(=O)c1cccc(NC(=S)NC(=O)c2cccnc2)c1	x	3.0	x	1	x
CCOc1ccc(/C=C2\SC(=S)N(CC(=O)N(CCO)C(C)(C)C)C2=O)cc1	-2	1.1	x	3	-3%
Cc1ccc(C)c(NC(=O)CCN2CCN(CCO)CC2)c1	x	-0.1	x	-2	x
Cn1cc(C(=O)NCc2ccc(F)cc2)cn1	21	-2.0	x	-10	-8%
Cc1ccc(SCc2ccc(C(=O)Nc3cccnc3)cc2)cc1	8	1.9	-27	26	4%
Cc1cc(C)cc(NC(=O)Cn2nnc(C(=O)NCc3ccco3)c2N)c1	x	1.4	x	-5	x
COc1ccc(N=Cc2c(O)n(C)c(=O)n(C)c2=O)cc1	x	-6.0	x	84	x
COc1cc2c(cc1OC)CN(CC(=O)NC(=O)NC(C)(C)C)CC2	7	-19	x	-10	3%
CCCc1cc(=O)n2nc(N3CCC(C(=O)N4CCN(c5cccc(OC)c5)CC4)CC3)sc2n1	x	-3.5	x	-2	x
Cc1ccc(-c2ccc(CCC(=O)O)n2NC(=O)c2ccc([N+](=O)[O-])cc2)cc1	-4	x	x	-2	6%
